Assay outcomes as filed in PubChem BioAssay.
Mtb hypoxia inh: PubChem AID 1159583 | M. tuberculosis hypoxia-regulated fluorescent reporter, fluorescence | fluorescence inhibition, % (test concentration not listed) | actives 0.1% (n = 300,000);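 active = 35 to 45% if threefold the growth effect, above 45% if 1.5-fold the growth effect; inactive = the rest, general growth blockers included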;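 note: wells of about 50 µL received 100 nL stock; 0% = vehicle wells and 100% = reference inhibitor wells; whole bacteria with a GFP reporter of the hypoxia response; strong numbers were not always called active; many hits fall short of the cut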
Sa ugtP lethal: growth inhibition of ugtP-null S. aureus, primary screen, RN4220 ugtP deletion, OD600. 16 h; some inactives read as strong as hits. growth inhibition, % (test concentration not listed). actives 0.54% (n = 330,000). AID 1259309, 2017;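 active = z-score under -3 and OD600 up to 0.15 on both plates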;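 note: plate controls were untreated wells for no effect and antibiotic for full effect; wells of about 80 µL received 100 nL stock; the first replicate is given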
Autofluor counter: compound fluorescence in toxin protease inhibitor counterscreen; compound autofluorescence counterscreen, microsphere flow cytometry; active compounds read high; fluorescence intensity (test concentration not listed); actives 3.1% (n = 360,000);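 active = at least 3 SD above the mean of all compounds, about 16000 in these data; inconclusive = too few beads counted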;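 note: 100 nL of 1 mM stock went into each well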
PrP 5UTR inh: inhibition of PrP 5' UTR reporter expression; inhibition, % (test concentration not listed); actives 0.35% (n = 340,000); cell-based PrP 5' UTR mRNA reporter, plate reader;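 active = every replicate at 50% or more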;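 note: 0 = median of the neutral control wells; tested in H4 reporter cells; numbers are from one replicate; inactives centre near -14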
RN4220 kill: growth inhibition of S. aureus RN4220, primary screen, OD600; inhibition, % (no concentration beside the values); 16 h; actives 0.33% (n = 330,000);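 active = z-score of -3 or lower and OD600 up to 0.18 on both plates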;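 note: plate controls were untreated cells for no effect and reference antibiotic for full effect; stock transfer was 100 nL into about 80 µL; one replicate is shown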
BJeLR lethal: MLPCN primary cell-based screen for lethality selective to Ras in HRASV12 cells | BJeLR (HRASV12) viability, CellTiter-Glo ATP luminescence, 48 h; reference of the scale not given here | inhibition, % (test concentration not listed) | actives 0.17% (n = 300,000) | AID 1554, 2009;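 active = replicate mean above 50%; inconclusive = above 50% but judged a plate artefact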;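 note: 50 nL library stock added to about 25 µL; numbers are from one replicate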
Mtb hypoxia inh growth: second read-out of Mtb hypoxia inh, no call of its own (marks repeat the call); growth inhibition, %; measured here: M. tuberculosis growth (absorbance);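 0% = vehicle and 100% = reference antibiotic; read after six days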
* marks the source's active call; other numbers are inactive results; ? = inconclusive; . = no result given; & = joins results of further samples.

SMILES	Mtb hypoxia inh	Mtb hypoxia inh growth	Sa ugtP lethal	Autofluor counter	PrP 5UTR inh	RN4220 kill	BJeLR lethal
O=c1c2ccccc2ncn1-c1cccc([N+](=O)[O-])c1	1	20	1	4858	-8	-1.6	-4
Cc1ccc(C)c(N(CC(=O)NC2CCCC2)C(=O)c2csnn2)c1	17	1	4	3860	-25	3.1	2
COc1ccc(C)cc1Nc1n[n+](-c2ccccc2)c(-c2cc(OC)c(OC)cc2Br)s1	.	.	.	3601	-14	.	0
O=C(NCC1CCCO1)c1ccc(S(=O)(=O)Nc2ccccc2F)cc1 (stereo not given)	10	-2	2	6552	-20	4.4	-10
O=C(Oc1ccc[nH]c1=O)c1cccc(Cl)c1	5	-2	8	3314	-13	4.7	3
COc1cccc(N(C(=O)c2snc(C(N)=O)c2N)C(C(=O)NCc2ccccc2)c2ccc(O)cc2)c1 (stereo not given)	-12	10	2	3695	-28	4.8	5
Cc1ccccc1NC(=O)CSc1nc(Nc2ccccc2)nc(N2CCOCC2)n1	.	.	2	2333	-19	-3.3	0
O=C(NCc1ccccc1)N1CCC(Cc2ccccc2)CC1	10	15	23	3887	-4	5.3	-4
CC(C)c1csc(CN2CCC(CO)(Cc3cccc(F)c3)CC2)n1	-4	2	2	3176	-73	4.6	11
CCC(=O)OC1(C)C(=O)C=C2C=C(CCCC(=O)OC)OC=C2C1=O (stereo not given)	.	.	.	2683	-4	.	6
O=C(N/N=C/c1c[nH]c2ccccc12)c1cc(-c2ccc(-c3ccccc3)cc2)n[nH]1	.	.	.	6362	-7	.	-6
C=CCN1C(=O)/C(=C/C(=O)OC)SC1=NNC(=O)c1ccccc1	20	4	-7	.	.	13	.
Cc1cc(C)c(NC(=O)C2CCCN(S(=O)(=O)c3c(C)noc3/C=C/N(C)C)C2)c(C)c1 (stereo not given)	4	7	7	5610	-6	2.1	8
Cc1ccc(C)c(OCCCC(=O)N2CCOCC2)c1	6	0	-3	1972	6	3.0	0
CCOC(=O)C1=C(C)N=c2s/c(=C\c3ccc(O)c([N+](=O)[O-])c3)c(=O)n2C1c1ccccc1OC (stereo not given)	.	.	.	4210	2	.	6

Next part; it opens with the 2 that closed the last part.
SMILES	Mtb hypoxia inh	Mtb hypoxia inh growth	Sa ugtP lethal	Autofluor counter	PrP 5UTR inh	RN4220 kill	BJeLR lethal
Cc1ccc(C)c(OCCCC(=O)N2CCOCC2)c1	6	0	-3	1972	6	3.0	0
CCOC(=O)C1=C(C)N=c2s/c(=C\c3ccc(O)c([N+](=O)[O-])c3)c(=O)n2C1c1ccccc1OC (stereo not given)	.	.	.	4210	2	.	6
Cc1cc2nnc(SC(C)C)n2c2ccccc12	15	9	-10	3174	-4	-13	12
CCn1ncc(Br)c1C(=O)Nc1cc(C)cc(C)c1	4	0	5	3536	1	6.4	1
COC(=O)c1ccc(-n2c(C)cc(C(=O)COC(=O)C3=COCCO3)c2C)cc1	14	12	3	3183	6	4.4	.
Cc1nnc(SCCC(=O)Nc2ccccc2Cl)o1	0	4	-2	3612	-26	-2.2	-2
CC1=C(C(=O)Nc2cccc(C(=O)NC(C)C)c2)SCCO1	3	0	-2	3937	0	3.4	8
CCOc1ccc(N2CC(C(=O)NCc3ccccc3)CC2=O)cc1 (stereo not given)	5	1	6	4051	-4	14	-5
O=C1OCCN1C(=O)[C@H]1[C@H](c2ccc([N+](=O)[O-])cc2)C(c2ccc(F)cc2)=NN1c1ccc(Br)cc1	-3	-1	4	2878	-18	-0.1	.
N#Cc1ccc(COC(=O)c2ccc(N3CCCC3)c([N+](=O)[O-])c2)cc1	14	0	11	2301	-12	13	7
COc1ccc(C(=O)NC(=S)Nc2ccccc2N2CCOCC2)cc1[N+](=O)[O-]	3	13	56	2530	-32	8.8	-5
COc1cc(C=Nn2c(C3CCCCC3)n[nH]c2=S)cc(Br)c1O	3	5	-9	.	.	1.2	.
O=C(O)c1ccccc1NC(=S)NC(NC(=O)c1ccccc1[N+](=O)[O-])C(Cl)(Cl)Cl (stereo not given)	14	10	-6	3811	-11	0.8	3
CC(=O)OCCCCON1C(=O)c2ccccc2C1=O	3	9	3	3045	-5	3.2	-2
CCOC(=O)N1CCC(N(CCOC)C(=S)Nc2cccc(SC)c2)CC1	-4	3	3	3215	-8	5.3	-5
CCN1CCN(C(=O)CSc2cc(=O)n(CC)c3ccccc23)CC1	6	14	-5	3765	-18	1.3	-3
C=CCn1c(=O)c(C(=O)NCCN(CC)CC)c(O)c2ccccc21	.	.	-2	2844	-1	0.3	7
COc1ccc(NS(=O)(=O)c2cccc(C(=O)NCC(c3ccccc3)N(C)C)c2)cc1 (stereo not given)	15	0	7	6605	-13	1.3	10
CNC(=O)/C(C#N)=C/c1c(N2CCN(c3cccc(Cl)c3)CC2)nc2c(C)cccn2c1=O	13	1	1	3381	-11	5.4	-1
O=C(NC(=S)NC1CCS(=O)(=O)C1)c1cccc([N+](=O)[O-])c1 (stereo not given)	-7	8	-3	5736	-7	1.0	1
Fc1ccccc1NC(=S)N/N=C/c1ccccc1Br	.	.	.	8903	-53	.	1
Cc1cc(=O)[nH]c(NN=Cc2ccccc2C(F)(F)F)n1	15	15	6	.	.	4.0	.
CN(CC(=O)NCC1CCCCC1)S(=O)(=O)c1ccc(Cl)cc1	5	4	12	3793	-24	0.6	-11
Cc1ccc(Cl)cc1NC(=O)C1CC1c1ccccc1 (stereo not given)	10	-1	5	3648	-11	0.5	-7
CCN(C(=O)COC(=O)C1CCN(S(=O)(=O)c2ccc3c(c2)OCCO3)CC1)C1CCS(=O)(=O)C1 (stereo not given)	3	-4	8	?	-18	2.4	4
CSCC[C@H](NC(=O)C1=NN(c2c(F)c(F)cc(F)c2F)C(=O)CC1)c1nc2ccccc2[nH]1	1	-1	-2	4252	-7	1.0	1
O=[N+]([O-])c1ccc(OCCCn2cncn2)cc1	11	1	6	.	9	5.9	-2
CCC(C)c1ccccc1N1CC(C(=O)N2CCN(c3ccccc3)CC2)CC1=O (stereo not given)	-2	9	-2	4998	-13	3.6	.
COc1ccccc1NCC(=O)NC(=O)NC1CCCCC1	6	5	4	3786	-9	6.7	.
Cc1nn(C)cc1/C=N\NC(=O)c1ccc(Cn2cc(Cl)cn2)cc1	.	.	.	2584	-9	.	1
N#Cc1ccsc1NC(=O)c1ccc(Cl)c([N+](=O)[O-])c1	.	.	.	4491	-51	.	19
Cc1ccc([N+](=O)[O-])c(C)[n+]1C	-10	1	13	1895	-8	2.5	0
Nc1ccc(Sc2nc3ccccc3[nH]2)cc1	-12	-4	-7	4462	5	1.2	4
CCCc1cc(=O)n2[nH]c(SCc3ccc(Cl)cc3)nc2n1	-14	-3	-5	3673	-5	2.6	-1
CC(C)NC(=O)CC(=O)NN=Cc1ccccc1F	9	9	6	.	.	3.4	.
Cc1ccc(-c2nc(CS(=O)(=O)CC(=O)NC3CCCCC3C)c(C)o2)cc1 (stereo not given)	7	3	19	5024	-25	8.8	4
Nc1c(Cl)cc(-c2csc(N3CCCC3c3nc4cc(Cl)c(N5CCCCC5)cc4n3CCOCCO)n2)cc1Cl (stereo not given)	-2	15	-17	4072	-6	-7.3	-9
O=C(NC1CCCc2c1cnn2-c1ccc(F)cc1F)c1ccccc1N1CCOCC1 (stereo not given)	6	-1	11	6861	-15	6.5	-7
N#Cc1ccccc1OCC(=O)NCC(c1cccs1)N1CCOCC1 (stereo not given)	10	-3	0	5397	-20	3.3	-8
CCCCNC(=O)C1CCN(Cc2ccc(OCc3ccccc3)cc2)CC1	14	13	-6	2168	-48	-4.9	10
O=c1[nH]cc(C(F)(F)F)cc1NS(=O)(=O)c1ccc([N+](=O)[O-])cc1	21	17	9	3243	43	7.3	0
CCCCC1(CCCC)C(=O)NC(=Nc2cccc(C)c2)NC1=O	-7	-2	-10	4228	-5	1.7	-1
CC(=O)OC1c2ccccc2C(=O)N1Cc1ccccc1 (stereo not given)	1	-2	-4	4782	-9	-15	4
CN(c1ccc(F)cc1)S(=O)(=O)c1ccc(Cl)c(C(=O)Nc2ccc3c(c2)CCC3)c1	7	8	4	8670	-32	-3.8	0
COc1ccc(-c2csc(NC(=O)CSc3nnnn3C)n2)cc1OC	0	-7	-3	?	-1	-0.9	4
CCOc1ccc(-c2cc(CCCC(=O)NCCc3ccc(OC)c(OC)c3OC)no2)cc1	1	5	14	22608*	-8	2.3	1
O=C(Nc1cnc2ccccc2c1)N1CCCCC1	7	8	-2	4116	-73	5.9	-7

Individual results from the results shown:
O=C(NC1CCCc2c1cnn2-c1ccc(F)cc1F)c1ccccc1N1CCOCC1 (stereo not given) in Autofluor counter: 6861
O=C(Nc1cnc2ccccc2c1)N1CCCCC1 in Autofluor counter: 4116
Cc1ccc(-c2nc(CS(=O)(=O)CC(=O)NC3CCCCC3C)c(C)o2)cc1 (stereo not given) in RN4220 kill: 8.8
N#Cc1ccccc1OCC(=O)NCC(c1cccs1)N1CCOCC1 (stereo not given) in PrP 5UTR inh: -20
O=c1[nH]cc(C(F)(F)F)cc1NS(=O)(=O)c1ccc([N+](=O)[O-])cc1 in Sa ugtP lethal: 9
CCCc1cc(=O)n2[nH]c(SCc3ccc(Cl)cc3)nc2n1 in Mtb hypoxia inh growth: -3
Nc1ccc(Sc2nc3ccccc3[nH]2)cc1 in BJeLR lethal: 4

Remaining list, next part.
SMILES	Mtb hypoxia inh	Mtb hypoxia inh growth	Sa ugtP lethal	Autofluor counter	PrP 5UTR inh	RN4220 kill	BJeLR lethal
COc1cc2c(cc1OC)CN(c1nc(CN3CCCCC3)nc3sc4c(c13)CCCC4)CC2	-6	11	-29	5144	-45	-1.2	-4
Cc1nc(SCC(=O)Nc2c(C)n(C)n(-c3ccccc3)c2=O)n[nH]1	4	2	3	3109	-19	5.2	-6
COc1cc(/C=C2\SC(=S)N(c3cccnc3)C2=O)ccc1O	.	.	.	3867	-19	.	19
COC(=O)C1=C(CN2CCCc3ccccc32)NC(=O)NC1c1ccc(F)cc1 (stereo not given)	-3	6	-20	6792	52	0.3	3
CCOc1ccc2c(c1)C(=NNC(=O)c1ccccn1)c1cc(OCC)ccc1-2	4	0	8	6265	-10	10	.
CCN(CC)S(=O)(=O)c1ccc(C(=O)Nc2cc3oc4ccccc4c3cc2OC)cc1	4	7	-5	1978	-13	5.6	-6
COCC1CCCN(C(=O)c2ccc3oc(C(C)C)nc3c2)C1 (stereo not given)	4	10	5	7085	-22	2.0	10
CCOc1cc(C(=O)NCCN2C(=O)SC(=Cc3cccnc3)C2=O)cc(OCC)c1OCC	0	1	2	.	.	6.6	.
O=C(O)CCCN1C(=O)/C(=C\c2ccc(-c3nc4ccccc4s3)o2)SC1=S	12	13	100*	4325	-15	47	5
Cc1ccc(C)c(N2N=C(C(=O)N(CC(C)C)c3c(N)n(Cc4ccccc4)c(=O)[nH]c3=O)CCC2=O)c1	13	6	2	6312	-29	4.6	0
CN(C)c1ccnc(Oc2ccc(F)cc2)c1C#N	-1	5	5	8108	-18	2.7	-7
C/C(CC(=O)Nc1ccccc1C)=N\NC(=O)Cc1csc(N)n1	.	.	.	4456	-23	.	-11
C=CCOC(=O)C1=CC(c2ccc(C(F)(F)F)cc2)CC(OCCCCO)O1 (stereo not given)	-1&18	-5&9	5&7	.	.	5.4&6.5	.
CCOC(=O)c1c(NC(=O)COc2ccccc2F)sc2c1CC(C)(C)NC2(C)C	15	25	-11	?	8	-2.8	11
CCCCn1c(N)c(N(Cc2ccccc2OC)C(=O)c2sccc2C)c(=O)[nH]c1=O	10	1	5	4678	-12	2.7	-8
Cc1c(C(=O)OC/C(O)=C(\C#N)c2nc3ccccc3[nH]2)oc2ccccc12	10	6	3	4725	-25	14	3
Cn1c(=O)c2ncn(CC(=O)Nc3ccc4c5c(cccc35)CC4)c2n(C)c1=O	8	14	2	4274	-12	2.5	6
O=C(NCCN=C1NS(=O)(=O)c2ccccc21)c1ccco1	7	12	0	13232	-25	3.0	-1
CC(=O)C1=C(O)C(=O)N(Cc2ccco2)C1c1ccc(F)cc1 (stereo not given)	6	1	4	6089	-18	8.3	10
CCNS(=O)(=O)c1ccc(Br)c(C(=O)OC(C)C(=O)NCC2CCCCC2)c1 (stereo not given)	24	31	9	3103	-11	2.6	.
O=C(c1ccccc1)N1CCN(C(=O)C2CC2)CC1	-2	-5	-5	5927	-24	1.5	-16
CS(=O)(=O)c1ccc(Cl)c(NC(=O)C2CCCN(C(=O)c3ccc(Cl)cc3)C2)c1 (stereo not given)	5	10	12	?	-16	2.6	-7
O=C(CSc1nc2ccccc2[nH]1)NCC1CCCO1 (stereo not given)	2	10	1	2168	-19	2.0	-9
